VDR inh: vitamin D3 receptor (human) inhibition. 0.93% of 400,000 active. Potency, µM, for the others: max response, negative = inhibition, most hits filed as inhibitors. VDR-SRC2-3 peptide fluorescence polarization, 2 h. P11473; active = well fitted inhibition curve with a large enough effect; inconclusive = small, poorly fitted or top-dose-only effect, or another doubt; inactive = no such curve, though single readings can be large or run the other way; note: series mostly up to about 120 µM
Target sequence (P11473 whole entry, looked up): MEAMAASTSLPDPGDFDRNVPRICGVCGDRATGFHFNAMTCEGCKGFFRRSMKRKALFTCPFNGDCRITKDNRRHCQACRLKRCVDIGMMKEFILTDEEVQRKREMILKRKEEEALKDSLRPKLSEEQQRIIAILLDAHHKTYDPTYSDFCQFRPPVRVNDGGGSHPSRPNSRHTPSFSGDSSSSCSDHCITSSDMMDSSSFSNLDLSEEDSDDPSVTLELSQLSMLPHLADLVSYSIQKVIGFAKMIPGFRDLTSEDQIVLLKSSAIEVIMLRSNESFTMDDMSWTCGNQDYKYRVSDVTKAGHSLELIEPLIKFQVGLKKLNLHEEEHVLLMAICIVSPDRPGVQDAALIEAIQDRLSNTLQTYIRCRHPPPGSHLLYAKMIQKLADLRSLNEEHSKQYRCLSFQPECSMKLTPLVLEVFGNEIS
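Compounds are added to VDR with labelled SRC2-3 coactivator peptide and held 2 h at room temperature. Inhibition of the VDR–peptide interaction is then read as a change in fluorescence polarization.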
An asterisk follows results filed as active; u = inconclusive; & = joins results of further samples. % is set by controls: 0 for no effect and ±100 for the full control effect; potency is the fitted concentration of half-maximal effect. These rows are one share of the data; rates above refer to the full screens.

entry	canonical_smiles	VDR inh
1	Cc1[nH]c2ccccc2c1C(c1ccncc1)N1CCC(C)CC1 (stereo not drawn)	-26.6%
2	O=C(NCCN1CCOCC1)c1ccc(Cl)c(S(=O)(=O)N2CCOCC2)c1	-13.0%
3	CCc1ccccc1NCC(=O)Nc1ccc(Cl)c(C(F)(F)F)c1	13.2%
4	C=C(C)C1CC=C(CO)CC1 (stereo not drawn)	1.9%
5	CC(C)c1ccc(/C=C2\Oc3c(ccc(O)c3CN3CCN(C)CC3)C2=O)cc1	-0.1%
6	O=C(NNC(=O)c1ccccc1-n1cccc1)c1ccc(Cl)cc1Cl	-1.6%
7	COc1ccc(NC(=O)C2CCCN(CCCc3ccccc3)C2)cc1OCC(C)C (stereo not drawn)	-2.2%
8	CNC(=O)CN(c1ccc(OC)cc1)S(=O)(=O)c1ccc(F)cc1	0.8%
9	C[C@@H]1[C@H](O)C[C@@]23COC(=O)C2=CCCC3[C@@]1(C)CCC1COC(=O)C1 (stereo partly drawn)	-7.5%
10	C=CCn1c(C)cc(C(=O)CSc2nc3ccccc3o2)c1C	-7.0%
11	C/C(=N/Nc1ccnc2cc(Cl)ccc12)c1ccc(O)cc1	-20.6%
12	CSc1ncnc2c1ncn2CC(=O)C1CCC2C3CCC4=CC(=O)CCC4(C)C3CCC12C (stereo not drawn)	7.4%
13	COc1ccccc1NC(=O)CSc1nnc(CNC(=O)c2ccco2)n1C	7.9%
14	CCN(c1ccccc1)C1SC(=O)N(c2ccccc2)C1=O (stereo not drawn)	-2.4%
15	CCOC(=O)C[C@H]1c2ccccc2S(=O)(=O)N1Cc1cccc(C(F)(F)F)c1	-2.1%
16	COc1ccccc1N1CCN(CCN2C(=O)CC3(CCCC3)CC2=O)CC1	19.8%&-10.6%
17	CC(=O)n1cc(/C=N/NC(=O)c2ccc([N+](=O)[O-])cc2)c2ccccc21	-0.6%
18	O=C(N/N=C/c1ccccc1OC(=O)c1ccc2c(c1)OCO2)c1ccccc1	-15.5%
19	Cc1cc(C(=O)OCC(=O)NC(C)c2ccccc2)c(C)o1 (stereo not drawn)	16.5%
20	O=C(Nc1cccnc1)c1ccc(F)cc1	5.5%
21	Cc1onc(-c2ccccc2)c1C(=O)Nc1nnc(-c2ccncc2)s1	-10.5%
22	O=c1oc2cc(O)ccc2cc1-c1ccc2c(c1)OCCO2	-0.9%
23	COc1ccccc1C1=NC(c2ccccc2)CN1c1ccccc1 (stereo not drawn)	4.2%
24	COCCCNS(=O)(=O)c1ccc2[nH]c3c(c2c1)CCCCC3	-5.0%
25	CCN(CC)S(=O)(=O)c1cccc(-c2nnc(SCC(N)=O)n2C)c1	0.4%
26	Cc1oc(-c2ccccc2)cc1C(=O)Nc1cccc(/C=C/C(=O)O)c1	-7.8%
27	CCCCN(C(=O)c1[nH]c(C)c(C(C)=O)c1C)c1c(N)n(CCCC)c(=O)[nH]c1=O	-26.6%
28	Cn1c(=O)c2ncn(CC(=O)NCCOc3ccc(C(C)(C)C)cc3)c2n(C)c1=O	-18.0%
29	O=C(c1cc(S(=O)(=O)N2CCN(c3ccccc3)CC2)ccc1Cl)N1CCCC(C(F)(F)F)C1 (stereo not drawn)	-3.9%
30	COCC(C)NS(=O)(=O)c1ccc(OC)cc1 (stereo not drawn)	3.2%
31	O=C(NCc1ccco1)C(=O)c1cn(CC(=O)N2CCCCC2)c2ccccc12	-17.3%
32	Nn1c(SC/C=C/c2ccccc2)nnc1-c1ccco1	0.5%
33	COc1ccc(-n2c(-c3ccccc3)cc3c2CCCC3=O)cc1	-19.7%
34	COc1cccc2c1C(=O)c1c(O)c3c(c(O)c1C2=O)C[C@](O)(C(C)=O)C[C@H]3O[C@@H]1C[C@H](N)[C@H](O)[C@H](C)O1	4.1%
35	C=CCNC(=O)NC(=O)CSc1nc2cc([N+](=O)[O-])ccc2n1-c1cccc(C(F)(F)F)c1	-5.2%
36	CCOc1ccc(NS(=O)(=O)c2ccc(C(=O)NCC(C)(C)N3CCOCC3)cc2)cc1	-8.0%
37	CCCOC(=O)C1C2C=CC3(CN(c4ccc(Cl)c(F)c4)C(=O)C13)O2 (stereo not drawn)	-8.1%
38	O=C(O)c1n[nH]c2c1CC(C1CCCCC1)CC2 (stereo not drawn)	-25.2%
39	Cc1cc(C)cc(NC(=O)CCc2nc3sc4c(c3c(=O)[nH]2)CCCC4)c1	-6.8%
40	CCOC(=O)c1cc(NC(=O)CNCC(c2ccccc2)N(C)C)cc(C(=O)OCC)c1 (stereo not drawn)	-7.2%
41	CCn1c(COc2ccccc2C)nnc1SCC(=O)N1CCC(C)CC1	-3.9%
42	CCOC(=O)C1CCCN(C(=O)c2ccc3c(c2)N(C)C(=O)/C(=C/c2ccccc2Cl)S3)C1 (stereo not drawn)	-10.6%
43	Cc1cc(N(C)Cc2ccccc2)nc(-c2ccccc2)n1	-7.5%
44	Cc1nn(-c2ccc(N3CCCC3)nn2)c(C)c1CCC(=O)Nc1ccccc1	8.9%
45	CC12CCC(C(=O)N(c3ccccn3)c3ccccn3)(OC1=O)C2(C)C (stereo not drawn)	12.2%
46	CC(=O)Nc1cc(Cl)ccc1OS(=O)(=O)c1ccc(C)cc1	-6.4%
47	COc1ccc(/C=C(\NC(=O)c2ccccc2)C(=O)NNC(=O)CCN2CCOCC2)cc1	-2.0%
48	O=C(Nc1ccccc1)N(c1ccccc1)C1C=CS(=O)(=O)C1 (stereo not drawn)	15.2%
49	COC(=O)C1C(=O)C2=C(CC1C)NC(=O)CC2c1cccc(C)c1 (stereo not drawn)	-23.4%
50	CSc1cccc(NC(=O)COC(=O)c2ccccn2)c1	3.9%
51	CCc1ccc(-c2nnn(Cc3nc4ccccc4s3)n2)cc1	-8.3%
52	Cc1ccccc1Oc1ncnc2sccc12	-3.9%
53	COc1cccc(-c2nc(CS(=O)CC(=O)NC3CCCC3)c(C)o2)c1 (stereo not drawn)	2.6%
54	O=C(O)COc1ccc(/C=C/c2nc(-c3ccccc3O)n[nH]2)cc1	-6.7%
55	CCC(CC)C(=O)NCCc1cc2c(C)ccc(C)c2[nH]c1=O	4.9%
56	Cc1cc(=O)c2ccc3ccccc3c2[nH]1	7.4%
57	Cc1ccc(-c2nnc(NC(=O)C3=COCCO3)o2)c(C)c1	6.9%
58	Cc1cc(-c2ccccc2)[nH]c(=O)c1S(=O)(=O)c1ccccc1	1.8%
59	O=C(CNC(=S)N(Cc1ccccc1F)C1CCCCC1)NCCN1CCOCC1	0.1%
60	COc1ncc(-c2ccc3c(c2)S(=O)(=O)c2cccc(C(=O)NCc4ccco4)c2C3=O)cn1	-22.6%

Additional compounds follow:
entry	canonical_smiles	VDR inh
61	Cc1cc([N+](=O)[O-])ccc1NCc1ccco1	-2.3%
62	Cc1ccc(Cl)cc1Nc1sc(C(=O)c2ccc(F)cc2)c(N)c1S(C)(=O)=O	10.8%
63	CCc1nc2oc3ccccc3c(=O)c2c(=O)n1Cc1ccc(OC)cc1	11.1%
64	CCC(Oc1ccccc1)C(=O)Nc1ccccc1C(=O)N1CCCCC1 (stereo not drawn)	-19.9%
65	COc1ccc(C(=O)NNC(=S)Nc2ccccc2)cc1	-10.3%
66	CCOC(=O)N1C/C(=C\c2ccccc2)C(=O)/C(=C/c2ccccc2)C1	u
67	COc1ccccc1CNC(=O)C1COc2ccccc2O1 (stereo not drawn)	11.8%
68	Cc1nc(-c2ccc(S(=O)(=O)NCc3ccccc3Cl)cc2)co1	12.4%
69	CCN1CCN(CC(=O)N2N=C(c3cccs3)CC2c2ccc(OC)c(OC)c2)C(=O)C1=O (stereo not drawn)	-23.1%
70	O=C(Cc1ccccc1)NC1CCN(C(=O)c2ccc([N+](=O)[O-])cc2)CC1	8.5%
71	Cc1ccnc(NC(=O)CCC(=O)N(CC(=O)NC(C)(C)C)c2ccc3c(c2)OCO3)c1	-23.2%
72	CC(C)N(C(=O)COC(=O)c1cccnc1Cl)c1ccccc1	13.4%
73	FC(F)(F)c1ccccc1-c1cncnc1-n1ccnc1	-4.3%
74	CN1CCCN(Cc2ccccc2Br)CC1	-8.5%
75	COc1ccccc1N1CCN(c2ccc(S(=O)(=O)N3CCN(C)CC3)cn2)CC1	18.3%

Retrieved by compound from above (seven):
entry	canonical_smiles	VDR inh
71	Cc1ccnc(NC(=O)CCC(=O)N(CC(=O)NC(C)(C)C)c2ccc3c(c2)OCO3)c1	-23.2%
72	CC(C)N(C(=O)COC(=O)c1cccnc1Cl)c1ccccc1	13.4%
63	CCc1nc2oc3ccccc3c(=O)c2c(=O)n1Cc1ccc(OC)cc1	11.1%
74	CN1CCCN(Cc2ccccc2Br)CC1	-8.5%
70	O=C(Cc1ccccc1)NC1CCN(C(=O)c2ccc([N+](=O)[O-])cc2)CC1	8.5%
73	FC(F)(F)c1ccccc1-c1cncnc1-n1ccnc1	-4.3%
68	Cc1nc(-c2ccc(S(=O)(=O)NCc3ccccc3Cl)cc2)co1	12.4%

Next part.
entry	canonical_smiles	VDR inh
76	CCC(=O)N1C(=O)CCN(C(C)=O)c2ccccc21	1.1%
77	CC(O)[C@H]1CC[C@H]2[C@@H]3CC[C@H]4C[C@H](O)CC[C@]4(C)[C@H]3[C@H](O)C[C@]12C (stereo partly drawn)	-28.2%
78	NS(=O)(=O)c1cccn1-c1ncc(C(F)(F)F)cc1Cl	11.1%
79	COc1ccc(NC(=O)NN2CCOCC2)cc1OC	9.4%
80	CCCCCCCCCCCCCCCC[n+]1ccc(C(N)=O)cc1	-14.4%
81	COc1cc(OC)cc(C(=O)Nc2ncn[nH]2)c1	-13.4%
82	CC(C)Oc1ccc(CNC(=O)c2ccc(NC(=O)c3nsc4ccccc34)cc2)cc1	18.5%
83	CSc1ccccc1NC(=O)CN(C)CC(=O)Nc1c(F)cccc1F	-14.6%
84	Cc1ccc(SCC(=O)NNC(=O)CCS(=O)(=O)c2ccccc2)cc1	-5.1%
85	COC(=O)C1(C(=O)OC)C/C=C\C/C=C\c2ccccc2[C@@H]1C[N+](=O)[O-]	-0.9%&-3.1%
86	COc1cc(COc2ccc3c(C)c(Cc4ccccc4)c(=O)oc3c2)cc(OC)c1OC	8.2%
87	O=C(O)c1csc(N/N=C/c2ccc(Br)cc2)n1	-23.3%
88	COc1cc(C(=O)Nc2ccc(Cl)c([N+](=O)[O-])c2)cc(OC)c1OC	29.6%
89	CC(=O)Nc1ccc(C(=O)CS(=O)(=O)c2ccc(C)cc2)cc1	1.4%
90	CC(C)C[C@H](NC(=O)c1[nH]cnc1C(=O)Nc1ccc(Cl)cc1)C(=O)OC(C)(C)C	-7.5%
91	COc1ccc(OC)c(NC(=O)CCN2CC(C)OC(C)C2)c1 (stereo not drawn)	-0.8%
92	C=CCSC1=Nc2cc(OC)c(OC)cc2C2=NC(=O)CN12	-3.9%
93	O=C(CCc1ccccc1)Nc1ccc2ccccc2n1	-15.8%
94	O=C(N/N=C/C=C/c1ccccc1[N+](=O)[O-])c1ccncc1	-3.1%
95	COc1ccc(N(CC(=O)Nc2ccc3c(c2)OCO3)S(=O)(=O)c2c(C)nn(C)c2C)cc1	-10.1%
96	O=C(O)CCNC(=O)C12CC3CC(CC(C3)C1)C2	2.7%
97	NC(=O)COC(=O)CCSc1ccc(Cl)cc1	-19.5%
98	O=c1[nH]c2cc3c(cc2cc1C(c1nnnn1Cc1ccccc1)N1CCCc2ccccc21)OCO3 (stereo not drawn)	7.7%
99	CCc1ccc(CNc2nc3nc(C)c(Cc4ccccc4)c(=O)n3[nH]2)cc1	-2.7%
100	Cn1cc(CN2CCCC(C(=O)c3cccs3)C2)c(-c2cccc(Cl)c2)n1 (stereo not drawn)	-4.5%
101	CCOC(=O)N1CCC(NC(=O)c2cnn3cccnc23)CC1	-2.4%
102	CSc1ccccc1C(=O)NCCCOC(C)C	-5.4%
103	CCOC(=O)c1sc(N2C(=O)c3oc4ccc(F)cc4c(=O)c3C2c2cccc(OC)c2)nc1C (stereo not drawn)	-1.0%
104	Cc1nc2ccccc2n1C1CCN(CC(=O)NCc2ccc(F)cc2)CC1	-1.1%
105	CNc1nc(-c2ccc3c(c2)CCN3C(=O)CC(C)(C)C)c(C)s1	-14.1%

Exported with the structure last: part of the list above
| no. | VDR inh | canonical_smiles |
| --- | --- | --- |
| 101 | -2.4% | CCOC(=O)N1CCC(NC(=O)c2cnn3cccnc23)CC1 |
| 91 | -0.8% | COc1ccc(OC)c(NC(=O)CCN2CC(C)OC(C)C2)c1 (stereo not drawn) |
| 104 | -1.1% | Cc1nc2ccccc2n1C1CCN(CC(=O)NCc2ccc(F)cc2)CC1 |

More entries follow:
entry	canonical_smiles	VDR inh
106	CC1(C)C(=O)OC(/C=C\c2ccccc2)C(C)(C)C1=O (stereo not drawn)	10.0%
107	Cc1ccc2[nH]c3c(c2c1)CN(C(=O)CN1CCN(c2cccc(C)c2C)CC1)CC3	-0.7%
108	COCCCNC(=O)COc1ccc(Br)cc1Cl	-6.9%
109	O=C(N1CCCCCC1)N1CCN(S(=O)(=O)N2CCOCC2)CC1	24.5%
110	COc1ccc(CCNC(=O)c2ccc3c(c2)OCCO3)cc1	-1.6%
111	O=C/C(=C\Nc1ccc(Cl)cn1)c1nc2ccccc2o1	17.0%
112	CCN1C(=O)[C@@H]2[C@@H](c3ccc(-c4ccc(OC)cc4)cc3)N3CCC[C@@]3(C(=O)OC)[C@@H]2C1=O	-3.3%
113	CC1CCCc2sc3nc(NCc4ccco4)n4ncnc4c3c21 (stereo not drawn)	-4.7%
114	CC(/C=N/NC(=O)c1cnccn1)=C\c1ccco1	-5.7%
115	Cc1nnc(N2CCN(C(=O)NCCC(C)C)CC2)c2nn(-c3ccc(Cl)cc3)c(C)c12	7.4%
116	Cc1cccc(C)c1NC(=O)C1(N(Cc2ccco2)C(=O)CC2NC(=O)NC2=O)CCCCC1 (stereo not drawn)	-15.2%

Screening results deposited in PubChem BioAssay by National Center for Advancing Translational Sciences (NCATS).
